# Assay outcomes deposited in PubChem BioAssay by several laboratories.
# ugtP null kill = growth inhibition of S. aureus ugtP deletion strain. growth inhibition, % (no concentration beside the values). AID 1259309. S. aureus RN4220 ugtP deletion, OD600 growth, 16 h; some inactives read as strong as hits. 330,000 tested, 0.54% active;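 active means z-score under -3 and OD600 up to 0.15 on both plates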;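 further: plate controls were untreated wells for no effect and antibiotic for full effect; wells of about 80 µL received 100 nL stock; the first replicate is given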
# RN4220 kill = kills Staphylococcus aureus RN4220; S. aureus RN4220 growth, OD600, 16 h; inhibition, % (test concentration not listed); 330,000 tested, 0.33% active; AID 1259311;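 active means z-score of -3 or lower and OD600 up to 0.18 on both plates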;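 further: plate controls were untreated cells for no effect and reference antibiotic for full effect; stock transfer was 100 nL into about 80 µL; one replicate is shown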
# Autofluor counter = compound fluorescence in toxin protease inhibitor counterscreen. compound autofluorescence counterscreen, microsphere flow cytometry; hits give high values. fluorescence intensity (test concentration not listed). 360,000 tested, 3.1% active;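 active means at least 3 SD above the mean of all compounds, about 16000 in these data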;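 further: 100 nL of 1 mM stock went into each well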
# Mtb hypoxia inh = inhibitors of hypoxia-regulated fluorescent reporter in Mycobacterium tuberculosis. 300,000 tested, 0.1% active. AID 1159583. M. tuberculosis hypoxia-regulated fluorescent reporter, fluorescence. fluorescence inhibition, % (concentration not given with the values);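 active means 35 to 45% if threefold the growth effect, above 45% if 1.5-fold the growth effect; inactive means the rest, general growth blockers included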;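 further: wells of about 50 µL received 100 nL stock; 0% = vehicle wells and 100% = reference inhibitor wells; whole bacteria with a GFP reporter of the hypoxia response; strong numbers were not always called active; many hits fall short of the cut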
# PrP 5UTR inh = suppresses PrP 5' UTR mRNA reporter expression; cell-based PrP 5' UTR mRNA reporter, plate reader; inhibition, % (no concentration beside the values); 340,000 tested, 0.35% active; AID 488862;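 active means every replicate at 50% or more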;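 further: 0 = median of the neutral control wells; tested in H4 reporter cells; numbers are from one replicate; inactives centre near -14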
# BJeLR lethal = kills HRASV12-expressing BJeLR cells; AID 1554; BJeLR (HRASV12) viability, CellTiter-Glo ATP luminescence, 48 h; reference of the scale not given here; inhibition, % (no concentration beside the values); 300,000 tested, 0.17% active;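 active means replicate mean above 50%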;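 further: 50 nL library stock added to about 25 µL; numbers are from one replicate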
# Mtb hypoxia inh growth = also measured in Mtb hypoxia inh; calls as there; growth inhibition, %; measured here: M. tuberculosis growth (absorbance);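 0% = vehicle and 100% = reference antibiotic; read after six days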
# The depositor's hits bear a star; . = no result given.
# Below each compound – ugtP null kill	RN4220 kill	Autofluor counter	Mtb hypoxia inh	Mtb hypoxia inh growth	PrP 5UTR inh	BJeLR lethal
CCCCN(CC)CCCNC(=O)c1cn(C)c(=O)c2c1c1ccccc1n2C
 : 10	3.8	4136	18	6	-15	12
COc1ccc(NC(=O)/C=C/c2ccc(OC)c(OC)c2)cn1
 : 5	-3.5	4387	10	0	-13	-1
Fc1ccc(C=Nn2c(COc3ccccc3)n[nH]c2=S)cc1
 : -1	3.0	.	13	6	.	.
CCOc1[nH]c(N=Cc2ccco2)c(C#N)c1C#N
 : -10	-26	.	0	1	.	.
CS(=O)(=O)N(CC(=O)NCc1ccc2c(c1)OCO2)Cc1ccccc1
 : 2	3.6	3711	10	5	0	-8
COc1ccc(N(C(=O)Cn2nnc3ccccc32)C(C(=O)NCc2ccco2)c2ccncc2)cc1 (stereo not drawn)
 : 8	2.0	3653	1	9	-16	2
Cc1cccc(C(=O)Nc2cccc(C(=O)NN=Cc3cccc(C)n3)c2)c1
 : 13	-2.2	.	12	3	.	.
O=C(NCCc1ccccc1F)N[C@@H](Cc1ccccc1)C(=O)O
 : 3	2.4	3905	5	-5	-16	-1
Cc1ccc(CNC(=O)CNC(=O)c2ccco2)cc1
 : 8	6.7	3058	9	2	-11	6
CCCOC1CCCN(C(=O)c2ccc(OC3CCN(Cc4ccccn4)CC3)cc2)C1 (stereo not drawn)
 : 2	1.4	5741	0	-2	-10	7
CC(C)Oc1cccc(C(=O)C2CCCN(C(=O)c3ccnn3C)C2)c1 (stereo not drawn)
 : 3	6.3	2564	4	15	-1	2
O=C(Nc1ccc(F)cc1)C1CC2CCC1C2 (stereo not drawn)
 : 2	2.6	4301	11	3	-5	0
Cc1ccn2c(NC3CCCCC3)c(-c3cccc(-c4cccc(Cl)c4)c3)nc2c1
 : .	.	5417	.	.	-22	-6
COCCNC(=O)C(c1ccc(O)cc1)N(C(=O)CCC(=O)Nc1nccs1)c1ccc(C)cc1 (stereo not drawn)
 : 1	1.6	4066	0	4	-54	1
C=CCNC(=O)c1onc(CSc2ccccc2F)c1C(=O)O
 : 1	9.4	3664	11	-2	-44	9
CCN(CC)CCOC(=O)/C=C/c1ccccc1
 : 12	2.7	5345	10	5	-17	-2
Cc1nnc(SCC(=O)NNC(=O)COc2ccc(Br)cc2)n1C
 : 1	3.2	4072	32*	65*	-8	.
O=C(O)CC1S/C(=N/N=Cc2ccc(-c3ccc(Cl)c([N+](=O)[O-])c3)o2)NC1=O (stereo not drawn)
 : 6	5.1	.	14	10	.	.
COc1ccc(OC)c(NC(=O)C(CC(C)C)NC(=O)C2CCCCC2)c1 (stereo not drawn)
 : 1	5.6	3693	1	4	-9	0
COc1ccc2[nH]c(=O)c(CN(Cc3nnnn3Cc3ccco3)C3CCCCC3)cc2c1
 : -22	7.8	2599	9	8	-5	-3
COc1cc(O)oc1C=Nc1ccc(C(F)(F)F)cc1
 : 3	1.6	3195	14	9	-40	2
Cc1cccc(C)c1NC(=O)CNC(=O)c1ccc(N2CCCC2)c([N+](=O)[O-])c1
 : -4	-3.3	3804	-4	12	3	.
COc1ccc(/C=N/NC(=O)c2ccncc2)cc1[N+](=O)[O-]
 : .	.	2028	.	.	-14	3
COc1ccc(NC(=O)CSC2=NC(=O)CC(C)=N2)cc1
 : -10	4.1	5292	2	7	-21	-3
Cc1ccc(CN(CC(=O)NCc2ccccn2)S(=O)(=O)c2ccccc2)cc1
 : 11	3.7	4765	2	2	14	-2
COc1ccc(C(=O)NCCCSc2ccccc2)cc1F
 : 11	-0.8	5509	-3	1	-7	-15
C/C(CC(=O)Nc1ccc(OCc2ccccc2)cc1)=N\NC(=O)C(=O)Nc1cccc(C)c1
 : .	.	1955	.	.	-8	-6
CSc1n[nH]c(=O)n1-c1cccc(Cl)c1
 : 2	0.6	3578	12	8	-2	5
Cc1cccc(NC(=O)CCSc2nnc(Cc3ccccc3)o2)c1
 : 4	1.8	7019	4	7	-23	-14
CC(=O)Nc1cccc(-c2nc3ccccc3s2)c1
 : -9	3.7	4587	10	5	-60	.
O=Cc1cccn1-c1ccc(O)cc1
 : 1	1.3	2259	12	2	-14	0
CC(C)(C)S(=O)(=O)N1Cc2ccc(CO)cc2[C@@H]1CCO
 : 4	2.4	4077	-2	6	-12	.
COc1cc(NS(=O)(=O)c2ccc(NC(=O)CN3C(=O)c4ccccc4C3=O)cc2)ncn1
 : 7	-1.4	2831	0	-2	-20	-2
COc1ccc(C(=O)N2CCCCC2C(=O)Nc2ccc(-n3nc(C)cc3C)cc2)o1 (stereo not drawn)
 : -7	5.5	5411	-9	-5	-17	2
O=C(C1CCN(S(=O)(=O)c2cccs2)CC1)N1CCCCCC1
 : -5	-2.3	10467	-10	15	-15	5
O=CNc1c(Br)cc2c(c1Br)Cc1cc(Br)ccc1-2
 : 4	3.7	3826	-1	2	13	.
NCCc1ccc(O)cc1
 : .	.	4380	.	.	30	-2
CCC(CC)NC(=O)COC(=O)c1cc(Br)ccc1Cl
 : 4	7.4	2272	12	11	-23	-8
CC(=O)N(CCc1cccc(C)c1)Cc1cc2cc(C)ccc2[nH]c1=O
 : -7	-0.2	3000	-2	-1	4	-13
CN1C(=O)/C(=C/c2ccc(C(F)(F)F)cc2)Sc2ccc(C(=O)N3CCN(c4ccccn4)CC3)cc21
 : -14	-4.6	6128	-9	6	-11	6
Cc1cccc(C)c1NC(=O)CSCCO
 : 4	3.9	7039	0	7	-25	-2
Cc1cc(NC(=O)Nc2ccc(Cl)c(Cl)c2)n(-c2ccccc2)n1
 : -36	-5.1	4351	-10	-6	-24	-5
CCC(CO)Oc1cc(NCc2cccc(C)c2)c2ncn(C(C)C)c2c1 (stereo not drawn)
 : 8	8.6	3993	-4	-9	-6	.
O=C(Oc1cccc(C=NNc2nc(Nc3ccccc3)nc(N3CCOCC3)n2)c1)c1ccco1
 : -22	8.1	.	-9	20	.	.
CCOc1cc(CNS(=O)(=O)c2ccc3c(c2)CC(=O)N3C)cc(OCC)c1OCC
 : 13	4.7	5223	2	-1	-13	-3
O=C(NC1CCC(NC(=O)C(F)(F)C(F)F)CC1)C(F)(F)C(F)F (stereo not drawn)
 : 2	-0.9	11198	0	10	.	2
COc1ccc(CNCC(O)(c2ccccc2)c2ccccc2)cc1
 : 13	-4.0	3393	5	6	-34	23
O=C1CCCN1CCCNC(=S)Nc1ccccc1Cl
 : 0	-2.3	3913	0	-7	-25	4
CCCCCCn1c(Br)nc2c1c(=O)n(C)c(=O)n2C
 : 5	0.2	4984	6	10	-8	-2
COc1ccccc1-n1c(CNC(=O)c2ccccc2)nnc1SCC(=O)Nc1nnc(C)s1
 : -1	-11	5910	5	12	-10	.
O=C(Nc1ccc(-c2cscn2)cc1)C1CCCN(Cc2ccccc2)C1 (stereo not drawn)
 : 3	2.9	5750	-4	-4	-12	-2
O=c1cc(-c2ccco2)oc2ccccc12
 : 2	6.1	4153	16	9	-29	.
CCC(C)NS(=O)(=O)c1cccs1 (stereo not drawn)
 : -1	0.6	4427	.	.	-19	0
Cc1ccc(NC2CCCN(C(=O)CCC3(C)CC3)C2)cc1C (stereo not drawn)
 : 7	4.1	5097	12	9	-28	-11
CCOC(=O)NC(=S)c1ccc[nH]1
 : 4	-0.3	2085	3	0	-16	0
O=C(O)c1ccc(N2C(=O)c3cccnc3C2=O)cc1
 : 5	1.0	4025	9	2	-21	0
c1ccc(CC2CNc3ccccc3CN2)cc1 (stereo not drawn)
 : 0	-3.0	3700	-3	6	-14	-13
CC1(OC(=O)C2CCCC2)C(=O)C=C2C=C(c3ccsc3)N(C3CCCCC3)C=C2C1=O (stereo not drawn)
 : 8	6.6	2264	1	2	-1	10
CC(C)Cn1c(N)c(C(=O)COC(=O)c2cnc(Cl)c(Cl)c2)c(=O)n(C)c1=O
 : 2	2.7	4250	9	-4	-2	3
Cc1ccc(Cl)cc1NC(=O)C(Cc1ccccc1)N1C(=O)C2C3CCC(C3)C2C1=O (stereo not drawn)
 : 3	0.2	1989	15	1	-20	-19

# Further entries follow.
# Below each compound – ugtP null kill	RN4220 kill	Autofluor counter	Mtb hypoxia inh	Mtb hypoxia inh growth	PrP 5UTR inh	BJeLR lethal
CCS(=O)(=O)N1Cc2ccccc2CC1C(=O)Nc1cccc(S(=O)(=O)N(C)C)c1 (stereo not drawn)
 : 3	0.1	3501	2	3	-11	-2
O=C(Nc1ccc2ccccc2c1)c1ccc(NS(=O)(=O)c2ccc(Br)s2)cc1
 : -21	6.3	2603	6	4	-12	3
CCN(C(=O)COC(=O)c1cc(OC)ccc1Br)C1CCS(=O)(=O)C1 (stereo not drawn)
 : 11	5.0	2926	14	10	-13	.
COc1cc(OC)c(C2C(C(=O)Nc3ccccc3)=C(C)Nc3ncnn32)cc1OC (stereo not drawn)
 : -6	-0.6	16373*	-11	-1	-20	-4
Cn1c(C(=O)N2CCC(C(=O)N3CCC4(CC3)OCCO4)CC2)cc2sccc21
 : 2	8.1	9717	5	2	-16	-2
CCOc1ccc2[nH]c(C)c(CN3CCCCC3)c(=O)c2c1
 : 10	4.1	3216	4	12	6	-9
O=C(COc1ccccc1)N=C1SC2CS(=O)(=O)CC2N1c1ccccc1 (stereo not drawn)
 : 1	1.7	5086	-5	4	-9	8
COc1ccc(N2CC(C(=O)N3CCN(Cc4ccc5c(c4)OCO5)CC3)CC2=O)cc1 (stereo not drawn)
 : 7	4.4	3799	-9	5	-31	-10
O=C(C1=C(O)C(=O)N(Cc2ccccc2)C1c1ccco1)c1ccco1 (stereo not drawn)
 : -3	11	3240	3	9	-11	11
CCC(CO)Oc1cc(NC(=O)c2ccccc2)c2ncn(C(C)C)c2c1 (stereo not drawn)
 : 14	2.3	3786	9	0	-17	.
Nc1cc([N+](=O)[O-])ccc1Nc1ccccc1
 : -5	5.5	2143	4	0	-1	-13
Cc1cc(OCc2nc(-c3cccs3)no2)cc(C)c1Cl
 : 4	2.5	5808	0	2	-50	9
CCN(CC)C(=O)C1CCN(Cc2ccc(Br)cc2)CC1
 : 13	3.8	10128	22	2	-1	-3
Cc1ccc(S(=O)(=O)c2ccc([N+](=O)[O-])cn2)cc1
 : 23	23	2962	.	.	-2	23
CN(C)S(=O)(=O)c1cccc(COC(=O)CNC(=O)c2ccc(Br)o2)c1
 : 0	3.8	5853	2	-4	-14	.
Cc1ccc2[nH]c(=O)c3cc(C(=O)N(CCCOC(C)C)Cc4ccco4)sc3c2c1
 : 3	12	5889	0	3	4	7
COc1ccccc1/C=C/CN1CCN(c2ccccc2)CC1
 : 8	5.3	9441	14	2	-12	-13
O=c1[nH]c(=O)n(CCO)c2nnn(Cc3ccccc3)c12
 : -5	1.0	4307	.	.	-5	-2
Cc1ccc(SCC(=O)Nc2cccc(NC(=O)c3ccco3)c2)cc1
 : -5	-11	3235	16	9	-29	0
CCOC(=O)C1C(=O)C=C(c2cccs2)CC1c1ccccc1 (stereo not drawn)
 : 4	8.3	2591	17	12	-19	-10
CCOc1cc(/C=N/Nc2ncc(C)c(=O)[nH]2)ccc1O
 : .	.	2774	.	.	2	-5
CN(C)CC(O)COC(c1ccc(Cl)cc1)c1ccc(Cl)cc1 (stereo not drawn)
 : -4	-1.9	5668	10	11	-10	3
CCCc1cc(=O)n2[nH]c(CCc3ccccc3)nc2n1
 : 0	2.4	8442	0	4	-25	-20
O=C(Nc1ccc(Br)cn1)c1cccc2c1-c1ccccc1C2=O
 : 1	3.9	4410	-3	-1	-11	4
O=C(CSc1n[nH]c(-c2ccncc2)n1)Nc1ccc(F)cc1
 : 1	2.2	4549	14	8	-16	-4

# Random excerpt: 4 records from the list, in no set order.
# Below each compound – ugtP null kill	RN4220 kill	Autofluor counter	Mtb hypoxia inh	Mtb hypoxia inh growth	PrP 5UTR inh	BJeLR lethal
O=C(Nc1ccc(Br)cn1)c1cccc2c1-c1ccccc1C2=O
 : 1	3.9	4410	-3	-1	-11	4
CN(C)CC(O)COC(c1ccc(Cl)cc1)c1ccc(Cl)cc1 (stereo not drawn)
 : -4	-1.9	5668	10	11	-10	3
CCCc1cc(=O)n2[nH]c(CCc3ccccc3)nc2n1
 : 0	2.4	8442	0	4	-25	-20
O=C(CSc1n[nH]c(-c2ccncc2)n1)Nc1ccc(F)cc1
 : 1	2.2	4549	14	8	-16	-4
